HIV Env fusion: HIV envelope-mediated fusion inhibition; AID 651610; inhibition, % at 12.3 µM; HeLa-JRFL Env/CEM21 cell fusion, luciferase; 360,000 tested, 1.1% active;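 active = mean replicate inhibition score of at least 50 and every replicate individually at or above 50; inconclusive = only one of the two criteria met; inactive = mean below 50 and not all replicates reaching 50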;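 also: 0% = plate neutral controls and 100% = maraviroc near 300 nM; one replicate is shown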
The depositor's hits bear a star; u = inconclusive; [ ] = another dose, or the depositor's remark. The list is partial, so the mix of outcomes need not match the whole.

Compound | HIV Env fusion
COC(=O)c1c(CC[C@@H](CO)NC(=O)N[C@@H](Cc2ccccc2)Cn2cc(-c3ccccc3)nn2)oc(C(=O)N2CCOCC2)c1C(=O)OC | 7[16.7 µM]
CO[C@H]1CC[C@H]2CCN(C)C(=O)[C@@H](C)[C@H](OC)CN(C)C(=O)c3cc(C#N)ccc3OC[C@H]1O2 | 21[16.7 µM]
COC(=O)Cc1nnn2c1[C@@H](C)[C@@H](c1ccccc1Br)OC[C@@H]2c1ccccc1 | 7
O=C(C(=O)N1CCN(S(=O)(=O)c2ccc(Cl)cc2)CC1)c1cccc(C(F)(F)F)c1 | -12
COCCN(CCOC)C(=O)[C@H](CCc1ccccc1)NC(=O)[C@H]1O[C@@H](n2cnc3c(N)ncnc32)[C@H](O)[C@@H]1O | 2
C[C@@H]1CN([C@H](C)CO)C(=O)c2cc(NC(=O)Cn3cnnn3)ccc2O[C@@H]1CN(C)S(=O)(=O)c1ccccc1 | 6[16.7 µM]
CN1CCN(C(=O)[C@@H]2[C@@H](CO)[C@@H]3Cn4c(ccc(-c5cncnc5)c4=O)[C@@H]3N2CC2CC2)CC1 | 5[16.7 µM]
COc1ccc2c3c(n(C)c2c1)[C@H](CO)N(C(=O)c1cnccn1)CC31CCN(C(C)=O)CC1 | -3[16.7 µM]
CO[C@@H]1CN(C)C(=O)c2ccc(NC(=O)C3CCC3)cc2OC[C@H](C)N(C(=O)CN(C)C)C[C@@H]1C | -8[16.7 µM]
C[C@@H]1CCCCO[C@H](CN(C)C(=O)c2ccccc2)[C@H](C)CN([C@@H](C)CO)C(=O)c2cc(NC(=O)CCCN(C)C)ccc2O1 | 17[16.7 µM]
CO[C@@H]1CN(C)C(=O)c2cc(NC(=O)C3CC3)ccc2OC[C@@H](C)N(Cc2ccccc2C(=O)O)C[C@H]1C | -4[16.7 µM]
C#CCN1C[C@@]2(O)CC[C@@H](O)[C@@H](OC)[C@@H]2[C@@]1(C)[C@H](O)CC=C(C)C | 18
CC(C)NC(=O)Nc1ccc2c(c1)C(=O)N([C@H](C)CO)C[C@H](C)[C@H](CN(C)C)OCCCC[C@H](C)O2 | 5[16.7 µM]
Cc1ccc2nc(-c3cccc(Br)c3)c(Cc3ccsc3)n2c1 | -58
Cc1noc(C)c1NC(=O)Nc1ccc2c(c1)C(=O)N([C@@H](C)CO)C[C@H](C)[C@@H](CN(C)S(=O)(=O)c1ccc(Cl)cc1)OCCCC[C@H](C)O2 | -2[16.7 µM]
O=C(C1CCCC1)N1CC[C@@H]2[C@H]1c1cc(C#Cc3ccc(F)cc3)ccc1N[C@@H]2CO | 7[16.7 µM]
COCCN(Cc1ccc(C)cc1)C(=O)[C@H]1O[C@@H](n2cnc(C(N)=O)n2)[C@H](O)[C@@H]1O | -7
COc1ccccc1CNC(=O)C[C@H]1C[C@H]2c3cc(NC(=O)c4ccc5c(c4)OCO5)ccc3O[C@H]2[C@@H](CO)O1 | 0[16.7 µM]
Cc1noc(C)c1NC(=O)Nc1ccc2c(c1)C(=O)N(C)[C@@H]1CC[C@@H](CC(=O)N[C@@H]3CCN(Cc4ccccc4)C3)O[C@H]1CO2 | 0[16.7 µM]
Brc1cccc(CN2CCN(c3ncc(Cc4ccccc4)cn3)CC2)n1 | 15
CC(C)c1[nH]nc2c1C(c1ccc3c(c1)OCO3)NC2=O (stereo not given) | u
C[C@@H]1CNC(=O)c2c(C(=O)N(C)Cc3ccccc3)ncn21 | 137*
COC(=O)[C@]12C[C@H](CC(=O)NCCCCc3ccccc3)C(=O)N(Cc3ccccc3)C1=C[C@H](C(C)C)O[C@@H]2C1CC1 | 18
CC(=NNc1ccc2ccccc2n1)c1ccccn1 | 110*
CN1C(=O)c2cc(NC(=O)C3CCOCC3)ccc2OC[C@@H]2O[C@@H](CC(=O)NCC3CCCCC3)CC[C@@H]21 | 0[16.7 µM]
COCC(=O)Nc1ccc2c(c1)[C@@H]1C[C@H](CC(=O)NCc3cccnc3)O[C@@H](CO)[C@@H]1O2 | -3[16.7 µM]
O=C(NC1CCC1)[C@@H]1[C@@H](CO)[C@@H]2Cn3c(ccc(-c4ccc(F)cc4)c3=O)[C@@H]2N1Cc1ccccn1 | -26[16.7 µM]
COc1ccc(C(=O)NCC2CCN(C(=O)C(=O)c3cccs3)CC2)c(OC)c1 | 13
Cc1ccc(CN2CC=CS2(=O)=O)cc1 | -5
COC(=O)c1cc2c(c3c4ccccc4n(S(=O)(=O)c4cccc(C)c4)c13)C(=O)N(Cc1ccccc1OC)C2 | -10
CC1=NC2=CC=CC3=NC(C(Cl)(Cl)Cl)=NC(=N1)N23 | 11
CO[C@@H]1CN(C)C(=O)c2ccc(NC(=O)c3cnccn3)cc2OC[C@@H](C)N(C)C[C@H]1C | 0[16.7 µM]
CN(C)CC(=O)Nc1ccc2c(c1)[C@@H]1C[C@H](CC(=O)N3CCCCC3)O[C@@H](CO)[C@@H]1O2 | -7[16.7 µM]
CO[C@H]1CN(C)C(=O)c2ccc(NC(=O)c3ccccc3)cc2OC[C@@H](C)N(C(=O)C2CC2)C[C@@H]1C | -18[16.7 µM]
COc1ccc(S(=O)(=O)N(C)C[C@@H]2Oc3c(NC(=O)Nc4ccccc4)cccc3C(=O)N([C@H](C)CO)C[C@@H]2C)cc1 | 9[16.7 µM]
CCCNC(=O)Nc1ccc2c(c1)C(=O)N(C)C[C@@H](OC)[C@H](C)CN(Cc1ccncc1)[C@@H](C)CO2 | -3[16.7 µM]
C[C@H](c1ccccc1)N1C[C@@H](COCc2ccccc2)Oc2cccc(N3CCCC3)c2S1(=O)=O | 3
COC(=O)c1cc2c(c3c4cc(OC)ccc4n(S(=O)(=O)c4ccc(F)cc4)c13)C(=O)N(CC(C)C)C2 | -8
CCS(=O)(=O)Nc1ccc2c(c1)C(=O)N(C)C[C@H](OC)[C@H](C)CN(CCC(F)(F)F)[C@@H](C)CO2 | 12[16.7 µM]
O=C(C[C@H]1C[C@@H]2c3cc(NC(=O)Nc4ccccc4F)ccc3O[C@@H]2[C@@H](CO)O1)NC1CCCCC1 | 24[16.7 µM]

Reformatted with values ahead of the structure: 4 of the compounds above.
| HIV Env fusion | molecule |
| --- | --- |
| -5 | Cc1ccc(CN2CC=CS2(=O)=O)cc1 |
| 0[16.7 µM] | CO[C@@H]1CN(C)C(=O)c2ccc(NC(=O)c3cnccn3)cc2OC[C@@H](C)N(C)C[C@H]1C |
| -2[16.7 µM] | Cc1noc(C)c1NC(=O)Nc1ccc2c(c1)C(=O)N([C@@H](C)CO)C[C@H](C)[C@@H](CN(C)S(=O)(=O)c1ccc(Cl)cc1)OCCCC[C@H](C)O2 |
| 0[16.7 µM] | Cc1noc(C)c1NC(=O)Nc1ccc2c(c1)C(=O)N(C)[C@@H]1CC[C@@H](CC(=O)N[C@@H]3CCN(Cc4ccccc4)C3)O[C@H]1CO2 |

The listing continues:
Compound | HIV Env fusion
C[C@@H]1C=CCCO[C@]12C(=O)Nc1ccccc12 | -1
O=C(C[C@H]1CC[C@H]2[C@@H](COC[C@@H](O)CN2C(=O)Cc2ccccc2)O1)NC1Cc2ccccc2C1 | 14[16.7 µM]
O=C(CC1CCCC1)N[C@@H](Cc1cccnc1)C(=O)N1CCC[C@H]1C(=O)NCCc1ccccc1Cl | 3
CCCCCCCCN1C(=O)[C@@H](CC(=O)N2CCCC2)C[C@@]2(C(=O)OC)C1=C[C@H](C(C)(C)C)O[C@@H]2C | 22
Cc1noc(C)c1S(=O)(=O)Nc1ccc2c(c1)C(=O)N([C@@H](C)CO)C[C@@H](C)[C@@H](CN(C)Cc1ccc(C(F)(F)F)cc1)OCCCC[C@H](C)O2 | -1[16.7 µM]
C[C@H]1CCCCO[C@H](CN(C)C)[C@@H](C)CN([C@@H](C)CO)C(=O)c2cc(NC(=O)C3CCCCC3)ccc2O1 | -7[16.7 µM]
Cc1ccc(CN2CC=CCS2(=O)=O)cc1 | 10
O=C([C@@H]1[C@@H](CO)[C@@H]2Cn3c(cccc3=O)[C@H]1N2C(=O)c1ccccn1)N1CCCCC1 | -5[16.7 µM]
CO[C@@H]1CC[C@@H]2CCN(C)C(=O)CC3(CCCCC3)CN(C)C(=O)c3cccc(C#N)c3OC[C@@H]1O2 | -3[16.7 µM]
CCc1c(-c2ccc(F)cc2F)ncn1CCc1ccccc1OC | -31
Cc1cc(Br)c2nc(-c3cccc(Br)c3)c(Cc3cccc(Cl)c3)n2c1 | 5
CN(C)CC(=O)Nc1ccc2c(c1)[C@H]1C[C@@H](CC(=O)NCc3ccc(-c4ccccc4)cc3)O[C@@H](CO)[C@H]1O2 | -6[16.7 µM]
CO[C@H]1CN(C)C(=O)c2cc(NC(=O)C3CC3)ccc2OC[C@H](C)N(Cc2cncnc2)C[C@@H]1C | -5[16.7 µM]
O=S(=O)(c1ccccc1)N1CCCc2nc(-c3ccccc3)ccc21 | 6
CCC(=O)N1C[C@H](C)[C@H](OC)CN(C)C(=O)c2ccc(NC(=O)c3cc(C)on3)cc2OC[C@H]1C | 8[16.7 µM]
CN1C(=O)c2cc(NS(=O)(=O)c3cccc(F)c3)ccc2OC[C@H]2O[C@H](CC(=O)N3CCc4ccccc4C3)CC[C@@H]21 | 10[16.7 µM]
COCC(=O)Nc1ccc2c(c1)C(=O)N(C)C[C@H](OC)[C@@H](C)CN[C@@H](C)CO2 | 13[16.7 µM]
CN(C)C(=O)[C@H]1[C@H](CO)[C@H]2Cn3c(ccc(-c4ccncc4)c3=O)[C@@H]1N2CC1CC1 | -4[16.7 µM]
CCCN1C[C@H](C)[C@@H](OC)CN(C)C(=O)c2cc(NC(=O)Nc3cccc(F)c3)ccc2OC[C@H]1C | 5[16.7 µM]
C[C@@H]1CN([C@@H](C)CO)C(=O)c2ccccc2-c2ccccc2CO[C@H]1CN(C)CC1CC1 | 10[16.7 µM]
CC(C)NC(=O)Nc1ccc2c(c1)C(=O)N([C@@H](C)CO)C[C@H](C)[C@H](CN(C)C(=O)CCC(F)(F)F)OCCCC[C@@H](C)O2 | -11[16.7 µM]
C[C@H](CO)N1C[C@H](C)[C@H](CN(C)S(=O)(=O)c2cccs2)OCCCC[C@H](C)Oc2ccc(N(C)C)cc2C1=O | 0[16.7 µM]
CCS(=O)(=O)Nc1ccc2c(c1)C(=O)N(C)C[C@@H](OC)[C@@H](C)CN(CCC(F)(F)F)[C@H](C)CO2 | -7[16.7 µM]
COc1ccc2c3c(n(C)c2c1)[C@H](CO)N(C(=O)C1CC1)CC31CCN(C)CC1 | -26[16.7 µM]
CC(C)(C)S(=O)N1C[C@H]2CC(=O)C=C2[C@@H]1CCO (stereo not given in full) | 22
O=C(Nc1ccc(C(F)(F)F)cc1)Nc1ccc2c(c1)[C@@H]1C[C@@H](CC(=O)N3CCc4ccccc4C3)O[C@@H](CO)[C@@H]1O2 | -13[16.7 µM]
CNC[C@@H]1OCCCC[C@H](C)Oc2ccc(NC(=O)Nc3ccc4c(c3)OCO4)cc2C(=O)N([C@@H](C)CO)C[C@@H]1C | u
COc1ccc(N2C(=O)c3n[nH]c(C(C)C)c3C2c2ccccc2)cc1 (stereo not given) | -22
Cc1[nH]c(=O)[nH]c(=O)c1CCSSCCc1c(C)[nH]c(=O)[nH]c1=O | 9
CO[C@H]1CN(C)C(=O)c2cc(NS(=O)(=O)c3ccccc3)ccc2OC[C@@H](C)N(C)C[C@@H]1C | 5[16.7 µM]
COc1ccc2c3c(n(C)c2c1)[C@H](CO)N(C(=O)CN1CCOCC1)CC31CN(C(=O)Nc2cccc(F)c2)C1 | -7[16.7 µM]
O=C(NCC[C@H]1CC[C@H](NS(=O)(=O)Cc2ccccc2)[C@@H](CO)O1)C1CCC1 | 17[16.7 µM]
CNC[C@H]1OCCCC[C@@H](C)Oc2ccc(NC(=O)NC(C)C)cc2C(=O)N([C@H](C)CO)C[C@@H]1C | 3[16.7 µM]
O=C(C[C@@H]1C[C@@H]2c3cc(NC(=O)Nc4ccc(C(F)(F)F)cc4)ccc3O[C@@H]2[C@H](CO)O1)NCc1cc(F)ccc1F | -3[16.7 µM]
COC(=O)[C@]12C[C@H](CC(=O)NCC3CCCCC3)C(=O)N(Cc3ccc4c(c3)OCO4)C1=C[C@H](COCc1ccccc1)O[C@@H]2C | -18
CC=Cc1ccc2n(c1=O)C[C@@H]1[C@@H](CO)[C@H](C(=O)Nc3nccs3)N(Cc3cc(F)ccc3F)[C@H]21 (mixture of isomers) | 13[16.7 µM]
O=C(O)[C@@H]1[C@@H](CO)[C@@H]2Cn3c(ccc(/C=C/c4ccccc4)c3=O)[C@@H]2N1Cc1ccc2c(c1)OCO2 | -8[16.7 µM]
O=C(C[C@H]1C=C[C@@H](NC(=O)Nc2ccc(C(F)(F)F)cc2)[C@@H](CO)O1)NCc1cccc(F)c1 | 0[16.7 µM]
COc1cccc(C(=O)NCC2CCN(C(=O)C(=O)c3cc4ccccc4o3)CC2)c1 | 5
Cc1nn(-c2ccccc2)nc1C(=O)Nc1ccccc1C(=O)NCC1CC1 | 11
COc1ccc(C(=O)c2[nH]c(N)c(C(=O)c3c[nH]c4ccccc34)c2-c2ccc(F)c(OC)c2)cc1 | 15
O=C(NCC1CCN(C(=O)C(=O)c2cccs2)CC1)c1cccnc1 | -6

Given field by field: part of the list above.
COC(=O)[C@]12C[C@H](CC(=O)NCCCCc3ccccc3)C(=O)N(Cc3ccccc3)C1=C[C@H](C(C)C)O[C@@H]2C1CC1
  HIV Env fusion = 18
Cc1noc(C)c1S(=O)(=O)Nc1ccc2c(c1)C(=O)N([C@@H](C)CO)C[C@@H](C)[C@@H](CN(C)Cc1ccc(C(F)(F)F)cc1)OCCCC[C@H](C)O2
  HIV Env fusion = -1[16.7 µM]
